CDC25B CDK2 inh: human CDC25B-CDK2/CyclinA binding inhibition | P30305+P24941 | HTRF CDC25B-CDK2/CyclinA binding, anti-His/anti-Flag; active compounds read high | z-score (test concentration not listed) | 0.72% of 94,000 active | AID 1259370;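 note: score is relative to mean and SD of negative controls; strong numbers were not always called active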
HIV TAR-Tat: HIV-1 TAR-Tat binding disruption; HIV-1 TAR RNA, Tat peptide displacement FRET; active compounds read high; z-score (concentration not given with the values); 0.6% of 100,000 active;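 note: score is relative to mean and SD of negative controls; some compounds called inactive have numbers as strong as hits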
Active calls of the source: *; x = not tested or not shown.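 Rule for the calls: active = z-score from 3 up in half or more of its runs; inactive = the rest.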

SMILES	CDC25B CDK2 inh	HIV TAR-Tat
CC1=C(C(=O)OCCc2ccccc2)C(c2ccc(F)cc2)C2=C(CC(C)(C)CC2=O)N1 (configuration not stated)	-1.3	2.1
NC1=NC(c2ccccc2F)CC(=O)N1 (configuration not stated)	x	0.97
C=CCn1c(C)nc2cc(C)c(C)cc21	-1.3	1.2
O=C(CCc1nc(-c2ccc(Cl)cc2)no1)Nc1ccc(C(F)(F)F)cc1	-1.2	x
CCc1nnc(SCc2ccc(F)cc2Cl)c2cc3occc3n12	x	1.4
Cc1ccc(-n2ccc(=O)c(C(=O)Nc3c(C)n(C)n(-c4ccccc4)c3=O)n2)cc1	-1.6	1.1
COc1cc(OC)c(NC(=O)c2cnn3c4c(cnc23)CCCCCC4)cc1Cl	x	-1.1
CN1CCN(S(=O)(=O)c2ccc3c(c2)CCCC(=O)N3)CC1	x	-0.12
O=CC(C=Nc1ccc(Cl)cn1)[N+](=O)[O-] (configuration not stated)	4.3*	x
COc1cc(Sc2ccc(Cl)cc2)ccc1[N+](=O)[O-]	-1.8	x
CCCCC(=O)N(c1ccc2oc(=O)sc2c1)S(=O)(=O)c1ccccc1	-2.4	1.1
CCCNC(=O)Cn1cnc2sc(C(=O)N3CC(C)CC(C)C3)c(C)c2c1=O (configuration not stated)	0.92	x
CC(=O)Nc1ccc2[nH]c(C)c(C(Nc3ccccn3)c3ccccn3)c2c1 (configuration not stated)	-0.7	0.5
N#Cc1cc2c(nc1SCC(=O)Nc1ccccc1)CCC2	0.71	1.5
CC(C)CCC1=NN(C(=O)c2ccc(N(C)C)cc2)C(O)(C(F)(F)F)C1 (configuration not stated)	-2.3	x
O=C(CN1CCSc2ccccc21)N1CCN(c2ccccn2)CC1	x	0.33
O=C(CCc1nnc2ccc(N3CCOCC3)nn12)Nc1ccccc1F	x	1.3
Cc1ccc(-c2csc3c2ncn2c(=O)[nH]nc32)cc1	-1.9	0.9
C=CCOC(=O)c1nnc2c(-c3ccc(Br)cc3)c(C)nn2c1C	-0.45	0.18
O=C1CSC(c2cccc(NS(=O)(=O)c3ccc(F)c(F)c3)c2)N1 (configuration not stated)	x	0.11
Cc1cc(C(F)F)n2nc(C(=O)O)nc2n1	1	1.6
O=c1[nH]ccn(-c2c(F)cccc2F)c1=O	-0.76	x
Nc1nnc(SC/C=C/CSc2nnc(N)s2)s1	-0.83	x
Cc1nccn1CC(O)Cn1c2ccc(Cl)cc2c2cc(Cl)ccc21 (configuration not stated)	-1.7	x
Cc1ccccc1OCc1nnc(SCc2cc(=O)c3ccccc3[nH]2)n1C	x	-0.04
COc1ccc(OC)c(NC(=O)N2Cc3cccn3-c3ccccc32)c1	x	0.31
CCCN(CCC)S(=O)(=O)c1ccc(C(=O)NNC(=O)c2cc(OC)c(OC)c(OC)c2)cc1	-1.9	x
O=C(Nc1ccccc1)Nc1ccc(Oc2ncnc3cc(Cl)ccc23)nc1	-1	x
COc1ccc2[nH]cc(S(=O)(=O)c3cc(F)cc(F)c3)c(=O)c2c1	-1.3	1.6
Cc1cc(OC(C)C(=O)Oc2ccc(-n3cnnn3)cc2)cc(C)c1Cl (configuration not stated)	-1.2	-1.9
O=C(Sc1ccc(Cl)cc1)c1ccno1	-0.74	x
CCOC(=O)c1ccc2c(c1)[C@@H]1C=CC[C@@H]1[C@H](c1cccnc1)N2	0.88	-7.3
CCOC(=O)C(C)(C)Sc1nc(-c2cccs2)nc2c1c(=O)n(C)c(=O)n2C	-1.3	0.17
CC1Cc2cc(S(=O)(=O)N3CCC(C(N)=O)CC3)ccc2N1C(=O)C1CC1 (configuration not stated)	x	-0.05
Cc1cc(-c2ccc(C)c(S(=O)(=O)N(C)CC3COc4ccccc4O3)c2)on1 (configuration not stated)	x	1.8
CCOc1ccccc1NS(=O)(=O)c1ccc(-c2cc(C)no2)s1	x	0.17
CC1CCN(c2nc(N3CC(C)OC(C)C3)nc(N)c2[N+](=O)[O-])CC1 (configuration not stated)	x	0.94
O=C(c1cnc(N2CCCC2)nc1)N1CCN(c2ccccn2)CC1	x	1.9
Cc1c(Cl)cccc1-n1nc(C)c2c(C)cc(=O)[nH]c21	x	2.3
O=C1c2oc3ccc(F)cc3c(=O)c2C(c2cccc(O)c2)N1Cc1ccccc1 (configuration not stated)	-0.23	-0.74
Cc1nn(C)c(C(=O)N2Cc3ccccc3C(=O)N2)c1[N+](=O)[O-]	-0.02	x
Cc1cc(-c2ccc(=O)[nH]n2)cc(S(=O)(=O)N(C)C2CCCCC2)c1C	x	0.28
COc1ccc(-c2nc3cnccn3c2Nc2ccc(C(C)C)cc2)cc1	0.2	x
c1coc(-c2nccs2)c1	-1.4	x
C=CCSc1nc(=O)c2c(n1C)NC(=O)CC2c1cc(Br)ccc1OC (configuration not stated)	-2.2	1.3
COCCN1C(=O)c2oc3cc(C)c(C)cc3c(=O)c2C12C(=O)N(C)c1ccccc12 (configuration not stated)	0.53	0.74
CCOc1ccccc1Nc1ncnc2ccc(Br)cc12	-1	x
COc1ccc(NC(=O)OCc2ccc(F)cc2)cc1-n1cnnn1	x	1.6
CC1C(c2ccccc2)OCCN1C(=O)CCN1C(=O)c2ccccc2C1=O (configuration not stated)	-1.9	x
CC1(C)CC(=O)C2=C(C1)Nc1nc(SCc3ccccc3F)[nH]c(=O)c1C2c1cccnc1 (configuration not stated)	0.35	x
CC(C)/C(=N\OC(=O)c1ccc([N+](=O)[O-])cc1)c1ccccc1	0.15	x
COc1cc2c3c(c1OC)C1(C=CC(=O)C=C1)CC3N(C(=O)CCC(=O)O)CC2 (configuration not stated)	0.01	0.64
O=c1[nH]c(=S)[nH]c2c1C1(CCCC1)Cc1ccccc1-2	-4.2	x
COCc1[nH]nc2c1C(c1c[nH]c3ccccc13)C(C#N)=C(N)O2 (configuration not stated)	1.2	1.7
Cc1cc(NC(=O)c2noc3c2CC(C(C)(C)C)CC3)no1 (configuration not stated)	-0.15	-1.1
O=C(CCc1nnc2ccc(N3CCOCC3)nn12)NCc1ccc2c(c1)OCO2	0.19	0.64
CC(C)Cn1c(N2CCCCCC2)nc2c1c(=O)[nH]c(=O)n2C	0.1	x
Cc1ccc(-c2cc(C(F)(F)F)n3ncc(C(=O)OCCN(C)C)c3n2)cc1	0.16	1.4
COc1ccc(CNc2oc(-c3ccc(COc4ccccc4)o3)nc2C#N)cc1	-2.8	-0.1
CCN1C(=O)c2cccc3c(S(=O)(=O)Nc4cc(C)on4)ccc1c23	-0.74	-0.64
(continued)
SMILES	CDC25B CDK2 inh	HIV TAR-Tat
CC1=C(c2ccc(F)cc2)S(=O)(=O)NC1=NCc1ccccc1	x	-0.1
O=C1/C(=C/c2cccs2)SC(=S)N1/N=C/c1ccc(Cl)cc1Cl	-1.9	x
Cc1cc(-c2ccc(S(=O)(=O)N3CCN(C4CCCC4)CC3)s2)on1	x	2
c1ccc(Nc2nc(Nc3ccccc3)nc(N3CCOCC3)n2)cc1	0.61	1.3
O=C(C1CCCN1S(=O)(=O)c1cccc2nsnc12)N1CCN(c2ccccc2)CC1 (configuration not stated)	-0.4	x
Cc1nc(NCc2ccccc2)c2sc3nc4c(cc3c2n1)COC(C)(C)C4	-6.7	x
O=C(c1ccccc1Br)N(Cc1ccco1)Cc1cccs1	-1.6	-0.61
CCCc1nnc(NC(=O)Cc2coc3ccc(C(C)C)cc23)s1	-1.6	0.48
CC(C)c1ccc(-c2c(N3CCN(c4ccccn4)CC3)c(=O)c2=O)cc1	x	3.5
CC1CC[C@@]2(CO1)O[C@H]1C[C@H]3[C@@H]4CC[C@@H]5C[C@@H](O[C@@H]6O[C@H](CO)[C@H](O)[C@H](O)[C@H]6O[C@@H]6O[C@H](CO)[C@@H](O)[C@H](O)[C@H]6O)CC[C@]5(C)[C@H]4CC[C@]3(C)[C@H]1[C@@H]2C (some centres not stated)	x	1.6
COc1cc2c(cc1OC)C(c1ccc(F)cc1)C1=C(CC(C)(C)CC1=O)N2 (configuration not stated)	-2.9	-0.66
Cc1cc(NC(=O)C2CC(c3cccc(Br)c3)=NO2)no1 (configuration not stated)	-0.8	-0.4
Cc1ccc(CNCc2ccc3c(c2)OCO3)s1	-1.3	1.5
CC1CCN(c2ncnc3sc4c(c23)CCC(C)C4)CC1 (configuration not stated)	-2.1	1.9
CC(C)(C)NC(=O)c1cc2c(n(-c3ccc(Cl)cc3)c1=O)CCCC2=O	-0.67	0.14
CCc1ccc(-c2[nH]nc3nc(-c4cccs4)cc(C(=O)O)c23)cc1	x	9.5
C=C(C)CSc1nc(-c2ccc(Cl)cc2)c(C#N)c(=O)[nH]1	3.9	-0.39
CCOC(=O)C1=C(C)NC(C)=C(C(=O)OCC)C1/C=C/c1ccccc1	-2.3	x
CCN(CC)S(=O)(=O)N1CCC(C(=O)NCC2COc3ccccc3O2)CC1 (configuration not stated)	-0.57	x
COc1ccc(Cc2nn3c(-c4ccccc4Br)nnc3s2)cc1	0.13	0.22
O=C(Nc1ccc(F)cc1Cl)c1noc2c1CCc1sccc1-2	x	1.1
CCOC(=O)c1c(NC(=O)c2noc(C)c2[N+](=O)[O-])sc(C)c1C	-1.2	-0.96
NC(=O)Cn1ccn2nc(-c3ccc4c(c3)OCO4)cc2c1=O	x	0.62
O=C(CCc1nc(CSc2nc3ccccc3o2)no1)Nc1cc(F)cc(F)c1	x	1.9
CC(=O)c1ccc(C#N)c(SCc2ccc(Cl)cc2Cl)n1	-1.2	x
Cc1cccn2c(=O)c3cc(C(=O)N4CCN(C(c5ccccc5)c5ccccc5)CC4)n(C)c3nc12	x	1.5
CCCOc1ccc(C2C(C(=O)c3cc4ccccc4o3)=C(O)C(=O)N2CCN(C)C)cc1 (configuration not stated)	-0.35	-0.01
COc1ccc(NC(=O)Cn2nc3c4sccc4ncn3c2=O)cc1Cl	x	0.29
COCCCN1C(=O)C(=O)/C(=C(/O)c2ccccc2)C1c1ccc(Cl)cc1 (configuration not stated)	-0.46	2.4
CC(=O)N1CCC(C(=O)NCc2cc3ccccc3s2)CC1	-1.8	x
Cn1nc(-c2ccccc2)cc1NC(=O)CN1C(=O)c2ccccc2S1(=O)=O	-1.2	x
Cc1cccc(-c2nc3nc(C)cc(Nc4cccc(O)c4)n3n2)c1	x	1.2
Cc1c(C(=O)N(C)c2ccc(F)cc2)sc2nc3n(c(=O)c12)CCCC3	x	1.8
COc1cc(/C=C/c2[nH]c(=O)[nH]c(=O)c2[N+](=O)[O-])ccc1OCc1ccccc1	-1.3	0.16
CCOC(=O)c1cc(CC)sc1NC(C)=O	-1.1	-0.52
Cn1c(=O)c(=O)n(C)c2cc(S(=O)(=O)N3CCC4(CC3)Nc3ccccc3-n3cccc34)ccc21	x	0.35
O=C(c1cc(=O)c2ccccc2o1)N(Cc1ccco1)C1CCS(=O)(=O)C1 (configuration not stated)	-0.57	0.15
CCN(CC)CCCn1c(-c2ccccc2)cn2c3ccccc3nc12	-1.5	x
O=c1[nH]c(-c2ccccc2)nc2c1C1(CCCCC1)Cc1ccccc1-2	0.8	x
COc1cccc(NS(=O)(=O)c2cc3c4c(c2)CCN4C(=O)CC3)c1	x	2
NC(=S)c1ncc(C(F)(F)F)cc1Cl	-2	x
CCN(CC)CCCn1c(-c2ccc(Br)cc2)cn2c3ccccc3nc12	-1.8	x
Cn1c(=O)n(C)c2cc(C(=O)C(=O)c3ccccc3)ccc21	-3.4	-0.45
C(=C\c1nc2ccccc2o1)/c1ccccc1	-0.86	x
Cn1c2c(c(=O)n(C)c1=O)C(C(=O)Nc1ccc(Cl)cc1)CC(=O)N2 (configuration not stated)	0.62	-7.7
CC(C)c1ccc(NS(=O)(=O)c2ccc(N3C(=O)CCC3=O)cc2)cc1	-0.5	x
CCOC(=O)C1CCN(S(=O)(=O)c2ccc3[nH]c(=O)c(=O)[nH]c3c2)CC1	x	3.1
Cc1ccc(C)c(NS(=O)(=O)c2ccc(CN3C(=O)c4cccnc4C3=O)s2)c1	x	0.57
CCc1ccc(S(=O)(=O)c2c[nH]c3ccc(Cl)cc3c2=O)cc1	-2.2	1.9
COc1ccccc1Cc1nc(-c2ccc(OC)c(OC)c2)no1	-2.8	-1.6
N#Cc1c(C(F)(F)F)cc(-c2ccccc2)n(N)c1=O	-1	x
CCCCCSc1nc2n(n1)C(c1ccc(F)cc1)C1=C(CCCC1=O)N2 (configuration not stated)	0.75	-0.45
O=C(CSc1ccc(-c2ccccn2)nn1)Nc1ccccc1F	x	1.4
O=C(CN1C(=O)c2ccccc2C1=O)NCc1ccc(N2CCOCC2)cc1	-1.9	x

Grouped by structure, the entries above with an aryl thioether with sulfur outside any ring
SMILES	CDC25B CDK2 inh	HIV TAR-Tat
CCc1nnc(SCc2ccc(F)cc2Cl)c2cc3occc3n12	x	1.4
COc1cc(Sc2ccc(Cl)cc2)ccc1[N+](=O)[O-]	-1.8	x
N#Cc1cc2c(nc1SCC(=O)Nc1ccccc1)CCC2	0.71	1.5
Nc1nnc(SC/C=C/CSc2nnc(N)s2)s1	-0.83	x
Cc1ccccc1OCc1nnc(SCc2cc(=O)c3ccccc3[nH]2)n1C	x	-0.04
CCOC(=O)C(C)(C)Sc1nc(-c2cccs2)nc2c1c(=O)n(C)c(=O)n2C	-1.3	0.17
C=CCSc1nc(=O)c2c(n1C)NC(=O)CC2c1cc(Br)ccc1OC (configuration not stated)	-2.2	1.3
CC1(C)CC(=O)C2=C(C1)Nc1nc(SCc3ccccc3F)[nH]c(=O)c1C2c1cccnc1 (configuration not stated)	0.35	x
C=C(C)CSc1nc(-c2ccc(Cl)cc2)c(C#N)c(=O)[nH]1	3.9	-0.39
O=C(CCc1nc(CSc2nc3ccccc3o2)no1)Nc1cc(F)cc(F)c1	x	1.9
CC(=O)c1ccc(C#N)c(SCc2ccc(Cl)cc2Cl)n1	-1.2	x
CCCCCSc1nc2n(n1)C(c1ccc(F)cc1)C1=C(CCCC1=O)N2 (configuration not stated)	0.75	-0.45
O=C(CSc1ccc(-c2ccccn2)nn1)Nc1ccccc1F	x	1.4
